GLA inh pH 4.5 – qHTS Assay for Inhibitors of Human alpha-Galactosidase at pH 4.5. Alpha-galactosidase A (Homo sapiens), P06280. purified enzyme, 4-MU-alpha-Gal fluorescence, pH 4.5. activity change, negative = inhibition, % at 105 µM. 230,000 tested, under 10 active. AID 1467, 2008; inconclusive = small, poorly fitted or top-dose-only inhibition, or a rising curve; inactive = flat fitted curve, though single readings scatter; no compound was filed as active;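 also: 0% = full activity with enzyme and -100% = basal without enzyme; dose as in the result columns while the protocol names 77 µM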
Rango-impB inh – qHTS Assay for Inhibitors of Rango (Ran-regulated importin-beta cargo) - Importin beta complex formation; Importin subunit beta-1 (Homo sapiens), Q14974; Rango CFP/YFP FRET sensor + importin beta, 45 min; Potency, µM (series often up to 92.2 µM), without a hit: top-dose inhibition of complex formation; hit rate 0.031% among 340,000; AID 540263, 2011; active = rising FRET ratio curve, often small or poorly fitted; inconclusive = mostly compound fluorescence or quenching in the first reads; inactive = flat curves in all reads;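 also: potency is read from the fitted curve at half-maximal effect; 0% = DMSO wells and 100% = buffer wells lacking importin beta; nearly all actives have a fitted effect of over 15% in size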
Target sequence (Q14974 whole entry, looked up): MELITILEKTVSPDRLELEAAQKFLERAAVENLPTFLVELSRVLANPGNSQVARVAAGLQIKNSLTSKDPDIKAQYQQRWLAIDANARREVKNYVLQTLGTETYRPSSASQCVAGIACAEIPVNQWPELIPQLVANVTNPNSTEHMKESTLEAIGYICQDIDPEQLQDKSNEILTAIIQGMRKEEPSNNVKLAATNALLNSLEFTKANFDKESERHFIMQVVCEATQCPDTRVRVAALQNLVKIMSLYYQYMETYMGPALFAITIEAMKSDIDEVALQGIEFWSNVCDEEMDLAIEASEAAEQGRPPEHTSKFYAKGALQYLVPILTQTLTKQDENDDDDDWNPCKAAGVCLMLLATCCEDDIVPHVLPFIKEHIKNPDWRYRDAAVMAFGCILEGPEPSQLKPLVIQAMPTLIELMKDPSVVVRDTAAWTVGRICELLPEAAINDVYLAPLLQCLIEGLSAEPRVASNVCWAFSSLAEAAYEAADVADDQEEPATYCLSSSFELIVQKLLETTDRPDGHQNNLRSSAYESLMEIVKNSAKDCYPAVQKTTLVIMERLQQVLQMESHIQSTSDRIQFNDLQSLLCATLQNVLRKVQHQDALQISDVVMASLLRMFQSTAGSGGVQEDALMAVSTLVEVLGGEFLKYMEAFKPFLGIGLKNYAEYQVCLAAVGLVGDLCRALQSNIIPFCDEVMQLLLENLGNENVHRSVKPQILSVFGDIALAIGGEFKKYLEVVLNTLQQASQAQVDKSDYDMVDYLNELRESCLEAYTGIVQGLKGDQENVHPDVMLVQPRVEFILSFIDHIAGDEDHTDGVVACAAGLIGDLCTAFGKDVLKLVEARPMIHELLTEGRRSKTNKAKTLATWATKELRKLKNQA
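FRET biosensor Rango (snurportin 1 IBB between N-terminal EYFP and C-terminal Cerulean), 50 nM in PBS/1 mM DTT/0.02% Tween-20/0.1% BSA, preincubated 5 min RT with compound; 0.125 microM importin beta added, 45 min RT, CFP/YFP FRET ratio read.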
Rango dissoc inh – qHTS Assay for Inhibitors of RanGTP induced Rango (Ran-regulated importin-beta cargo) - Importin beta complex dissociation; Potency, µM (highest dose often 46.1 µM), inactives show top-dose activity change, negative = inhibition; hit rate 0.071% among 340,000; Snurportin-1 (Homo sapiens) + GTP-binding nuclear protein Ran (Homo sapiens) + Importin …; Biochemical FRET Rango-importin beta, RanGTP-induced dissociation; active means falling FRET ratio curve, often poorly fitted, with flat reads before Ran was added; inconclusive means other falling curves, or compound fluorescence or quenching; inactive means flat or rising ratio curve;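 also: potency is read from the fitted curve at half-maximal effect; % of control where 0% means no effect; nearly all actives have a fitted effect of over 45% in size; -100% = wells without RanGTP and RCC1; the record marks most hits as doubtful in a second field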
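Quantitative HTS using a FRET biosensor: 0.1 uM Rango, 0.25 uM importin beta, 0.6 uM Ran, 2 mM GTP, 0.2 uM RCC1 final, PBS with DTT, Tween-20 and BSA. Post-read taken 45 min after Ran addition.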
miR-21 FLuc – qHTS Assay for Modulators of miRNAs and/orActivators of miR-21. AID 2288, 2010. HeLa miR-21 FLuc reporter, luciferase, 48 h. Potency, µM (doses to about 38.3 µM), inactives show at the highest dose reporter change, positive = more light. 340,000 tested, under 10 active; active = well fitted rising curve with a large enough effect; inconclusive = small, poorly fitted or top-dose-only effect; inactive = no such curve, though single readings can be large or run the other way;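 also: % of control where 0% means no effect; miR-21 action dims this reporter so a rising signal means less miR-21 action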
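HeLa miR-21-FLuc reporter line, endogenous miR-21; 2000 cells/well in DMEM/10% FBS; compound titration up to ~40uM final, 48 h, 37 degree Celsius; luciferase detection reagent, 15 min lysis, CCD luminescence.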
Active calls of the source: *; ? = inconclusive; / = not tested or not shown; & = joins results of further samples. This is a subset (hit frequency here may not be typical).

SMILES | GLA inh pH 4.5 | Rango-impB inh | Rango dissoc inh | miR-21 FLuc
C=CCn1c(SCC(=O)NCC2CCCO2)nc2sc(CC)cc2c1=O (centres undefined) | / | -0.4% | -5.2% | /
CCC(C)C(NC(=O)C1CCC(C)CC1)C(=O)NC1CCN(Cc2ccccc2)CC1 (centres undefined) | 2.7 | / | / | -0.4%
COc1ccc(/C=N/Nc2nccnc2Cl)c(OC)c1 | -0.7 | -2.9% | -4.8% | -46.0%
C=C(C)CSc1nnc2[nH]c(=O)cc(N)n12 | / | 5.1% | 1.8% | /
COc1cccc(C(=O)NCc2ccc3[nH]c(C)cc3c2)c1 | -4.9 | -0.7% | 2.5% | 0.3%
CN(C)S(=O)(=O)c1cccc(CSCc2cccc(S(=O)(=O)N(C)C)c2)c1 | / | -1.2% | -7.4% | 13.0%
Cc1ccc2c(Cl)cc(Cl)c(OCC(=O)NCCc3ccccn3)c2n1 | 2.5 | 1.2% | 5.8% | -5.9%
CCCNC(=O)NC(=O)CSc1nnc(C)n1N | 13.1 | -1.2% | 18.6% | 0.5%
CCCCC(=O)NC(NC(=S)N1CCCCCC1)C(Cl)(Cl)Cl (centres undefined) | -3.4 | -2.4% | -5.4% | 2.6%
COc1ccccc1C(=O)Nc1c(C)cc(Br)cc1C | -2.1 | 1.8% | 16.9% | -14.7%
CCCN(CCC)C(=O)C(c1ccccc1)C1(O)CCCCC1 (centres undefined) | / | -0.8% | 0.8% | /
CN(C(=O)COC(=O)c1ccc(CN2CCCC2=O)cc1)c1ccccc1 | / | -1.2% | -13.5% | /
O=C(CSc1nccc(=O)[nH]1)NCc1ccco1 | 4.4 | -2.2% | -10.4% | -0.4%
O=Cc1c(-c2ccccc2)nc2ccccn12 | -21.5 | 1.5% | -3.9% | -43.1%
CCOCC(=O)Nc1c(C)n(C)n(-c2ccccc2)c1=O | 1.4 | / | / | 0.7%
CC1(C)Cc2c(sc3[nH]c(=S)n(Cc4ccco4)c(=O)c23)CO1 | 2.8 | -0.3% | 6.2% | -6.4%
O=c1nccc(N/N=C/c2ccccc2)[nH]1 | / | 0.0% | -13.0% | -40.3%
CC(=O)NC1C(=O)N=C(SCC(=O)Nc2cccc(Cl)c2)NC1=O (centres undefined) | -4.2 | -0.5% | -6.5% | 1.0%
CCC(C)NC(=O)c1ccc(Cl)c(S(=O)(=O)Nc2ccccc2N2CCOCC2)c1 (centres undefined) | / | 0.1% | 18.3% | /
CCc1c(C)c(C#N)c2[nH]c3ccccc3n2c1=S | -7.7 | ? | ? | -3.8%

Brought forward from above: six entries, followed by the next part.
SMILES | GLA inh pH 4.5 | Rango-impB inh | Rango dissoc inh | miR-21 FLuc
CCOCC(=O)Nc1c(C)n(C)n(-c2ccccc2)c1=O | 1.4 | / | / | 0.7%
CC1(C)Cc2c(sc3[nH]c(=S)n(Cc4ccco4)c(=O)c23)CO1 | 2.8 | -0.3% | 6.2% | -6.4%
O=c1nccc(N/N=C/c2ccccc2)[nH]1 | / | 0.0% | -13.0% | -40.3%
CC(=O)NC1C(=O)N=C(SCC(=O)Nc2cccc(Cl)c2)NC1=O (centres undefined) | -4.2 | -0.5% | -6.5% | 1.0%
CCC(C)NC(=O)c1ccc(Cl)c(S(=O)(=O)Nc2ccccc2N2CCOCC2)c1 (centres undefined) | / | 0.1% | 18.3% | /
CCc1c(C)c(C#N)c2[nH]c3ccccc3n2c1=S | -7.7 | ? | ? | -3.8%
CN1C(=O)C(O)(CC(=O)c2ccccn2)c2cc(Br)ccc21 (centres undefined) | 3.0 | 0.1% | 0.6% | 14.7%
O=[N+]([O-])c1c(NCCO)cc(N2CCCCC2)c2nonc12 | -15.5 | ? | -0.5% | -17.6%
Cc1cccc(N(C)C(=S)Oc2ccc3ccccc3c2)c1 | 8.6&2.8&-4.6 | -0.9% | 17.2% | -26.5%
CC(=O)c1ccc(C(C)(C)c2ccc(C(C)=O)s2)s1 | 2.6 | 2.1% | 7.1% | -1.0%
CCC(C)C(NS(=O)(=O)c1ccc(C)cc1)C(=O)Oc1ccc2c3c(c(=O)oc2c1)CCC3 (centres undefined) | 17.6 | -0.4% | 0.3% | -5.4%
Cc1cc(NS(=O)(=O)c2ccc(NC(=O)Nc3ccc4c(c3)OCO4)cc2)no1 | 0.3 | 2.3% | 0.6% | -37.4%
NC(=O)CC1C(=O)N(c2ccccc2)C(=S)N1NC(=O)c1ccccc1 (centres undefined) | / | -2.4% | 0.2% | -50.0%
CCCCCCCCCCCCCCCC(=O)OC/C=C(C)/C=C/C=C(C)/C=C/C1=C(C)CCCC1(C)C | -28.7 | -1.3% | -13.2% | /
Cc1cc(C)c2[nH]c(O)c(N=NC(=O)c3cc4c(s3)CCCC4)c2c1 | -2.4 | / | / | -7.4%
CCOC(=O)c1cc(-c2ccccc2)sc1NC(=O)COC(=O)c1ccc(Cl)c(S(N)(=O)=O)c1 | 3.3 | -0.9% | -18.1% | 1.0%
CC(C)OCCCNC(=O)CN1C(=O)/C(=C/c2ccccc2F)Oc2ccccc21 | / | -1.1% | -14.3% | -7.5%
CN1CCN(c2ccccc2NC(=O)c2cccc(OCc3ccccc3)c2)CC1 | -7.0 | 0.3% | 15.2% | 26.7%
CCCCCn1c(CN2CCN(c3cc(Cl)ccc3C)CC2)nc2c1c(=O)[nH]c(=O)n2C | -3.3 | 3.6% | -9.7% | -6.1%
C/C(=C\c1ccccc1)C(=O)N1CCN(c2cccc(C(F)(F)F)c2)CC1 | -18.0 | 3.1% | 8.6% | -11.3%
O=C(COc1ccc(Br)cc1)NCCNC(=O)c1ccccn1 | / | 3.8% | -3.5% | 2.0%
CN(Cc1nc(-c2ccc(Cl)cc2)no1)C(=O)c1ccc2c(c1)OCO2 | / | -0.5% | 0.0% | /
C[C@@]12CCC[C@H](O1)[C@@H]([C@H](O)c1ccccc1)O2 | / | -0.7% | 9.9% | /
CCCN1CCN(C(=O)Cn2cnc3sc(C)c(S(=O)(=O)N4CCC(C)CC4)c3c2=O)CC1 | / | -3.0% | -1.4% | -3.4%
CC(C)C(=O)N(c1cc2sc(=O)oc2c2ccccc12)S(=O)(=O)c1cccs1 | 3.4 | 5.8% | -5.7% | 3.2%
CCCc1cc2c(cc1NC(=O)c1ccco1)OCO2 | 0.8 | -3.0% | -3.4% | -2.2%
O=C1c2ccc([N+](=O)[O-])cc2S(=O)(=O)N1Cc1ccccc1 | / | 6.5% | 6.2% | 12.3%
COc1ccc(S(=O)(=O)N(C)C[C@H]2Oc3ccc(NC(=O)Nc4c(C)noc4C)cc3C(=O)N([C@H](C)CO)C[C@@H]2C)cc1 | / | 2.7% | -3.1% | /
c1ccc(-c2ccc3nnnn3n2)cc1 | -3.3 | 1.5% | 8.6% | ?
CCCN=CC1=C(O)CC(c2ccccc2)CC1=O (centres undefined) | 2.7 | -1.1% | 0.3% | -14.0%
COc1ccc(OC)c2sc(NNC(=O)C3COc4ccccc4O3)nc12 (centres undefined) | -4.6 | -3.1% | -0.4% | 1.6%
Cc1cc(C)n(-c2cccc(F)n2)n1 | -1.8 | 0.6% | 8.2% | 1.9%
CN(C)c1ccc(C(CN)c2c[nH]c3ccccc23)cc1 (centres undefined) | / | -10.1% | -11.5% | -30.4%
CCN(CC(N)=O)S(=O)(=O)c1ccc(Br)cc1 | 2.9 | 0.5% | 0.1% | -9.4%
COc1ccc(-c2cc(C)no2)cc1S(=O)(=O)NCCCN(C)Cc1ccccc1 | / | -0.7% | 17.4% | -4.0%
O=C(c1ccccc1F)N1CCCC(c2ccccc2)C1 (centres undefined) | -8.2 | 1.9% | -15.1% | -7.5%
O=C(N/N=C/c1ccccn1)c1cc(-c2ccncc2)nc2ccccc12 | -0.5 | 2.9% | -14.8% | 10.7%
CCCC/C(O)=C/c1nc2ccccc2[nH]c1=O | -0.2 | ? | -21.0% | -12.6%
Cn1c(CCN2CCN(c3ccccc3)CC2)nc2cc(NC(=O)c3ccco3)ccc21 | -0.5 | 0.0% | -4.3% | -2.9%
CCOc1ccc(C(=O)CCC(=O)N2CCN(c3ncccn3)CC2)cc1 | / | 3.0% | 10.1% | -5.8%
COc1ccc(OC)c(CNC(=O)C(C)n2nc(C)c3c(C)n(-c4ccccc4)nc3c2=O)c1 (centres undefined) | / | ? | -9.4% | 14.2%
CCN(CC)S(=O)(=O)c1cc(Br)ccc1OC | 12.6 | -2.5% | 4.3% | -9.2%
CC(=O)c1c(C)[nH]c(C(=O)N2CCN(S(=O)(=O)c3ccc(C)cc3C)CC2)c1C | / | -5.1% | 2.7% | /
CCOC(=O)C1(Cc2ccc(Cl)cc2)CCN(Cc2nccn2CC)CC1 | 1.5 | -3.4% | -18.0% | -1.2%
COc1ccccc1NC(=O)N1CCCC1C(=O)NCc1ccccc1Cl (centres undefined) | / | -6.0% | 39.5% | -4.2%
COCCNC(=O)C(=O)NCC1OCCN1C(=O)c1ccc(Cl)cc1 (centres undefined) | 7.7 | -0.3% | 26.9% | -9.9%
O=C(Nc1ccc(Br)cc1)c1cc(S(=O)(=O)Nc2ccccn2)ccc1Cl | / | -0.9% | 8.8% | 7.4%
O=C(COC(=O)Cc1cccs1)Nc1ccc(F)c(F)c1F | -16.2 | 2.2% | 4.7% | 0.3%
O=C(NCCc1nc2ccccc2[nH]1)/C(=C/c1ccc2c(c1)OCO2)NC(=O)c1ccccc1 | -6.4 | -3.3% | -10.3% | -4.4%
Clc1ccc(N=c2ssnc2Cl)cc1 | -1.9 | -2.5% | 10.1% | 1.7%
COc1cccc(C(=O)c2c[nH]c(C(=O)NCCCN(C)C)c2)c1 | -1.6 | 0.9% | 10.5% | 1.8%
COc1cc(NS(=O)(=O)c2ccc(NC(=O)/C=C/c3ccc([N+](=O)[O-])cc3)cc2)ncn1 | -7.3 | -2.2% | -2.0% | 0.2%
O=S(=O)(NC1=NCCC1)c1cccs1 | -8.9 | -0.1% | -5.8% | 0.5%
NC(=O)c1nsc(C(=O)N(c2ccc(Cl)cc2)C(C(=O)NCC2CCCO2)c2cccs2)c1N (centres undefined) | 3.6 | -5.6% | 0.4% | 0.0%
CCOc1ccc(S(=O)(=O)NCc2ccccn2)cc1NC(=O)c1ccccc1F | / | -2.3% | -0.8% | ?
Cc1cccc(-n2ncc3c(NCCCn4ccnc4)ncnc32)c1 | 2.6 | -1.7% | -9.0% | -60.7%
Cc1cc(OCC(=O)N2CCOCC2)ccc1[N+](=O)[O-] | 1.3 | 0.0% | -22.7% | -40.4%
COc1ccc(CCCC(=O)NCC(=O)N/N=C/c2cc(Cl)ccc2OC)cc1 | / | 0.9% | -3.7% | 0.7%
O=C(NC(=S)Nc1ccc(N2CCCC2)cc1)c1ccc(F)cc1 | / | 0.0% | 0.2% | -8.3%
C[C@]12CC[C@H](O)CC1=CCC1C2CC[C@@]2(C)C1CC[C@@H]2NC(=O)CCC(=O)O (some centres undefined) | / | -0.1% | 16.9% | /
O=C(C1=C[C@@H](c2ccc(Br)cc2)C[C@@H](OCc2ccc(CO)cc2)O1)N1CCN(Cc2ccc3c(c2)OCO3)CC1 | -27.0 | -1.1% | -7.3% | 21.0%
CCN(c1ccccc1)P(=O)(Nc1ccccc1)Nc1ccccc1 | 3.2 | -4.9% | -10.6% | -0.7%
Cc1cc([N+](=O)[O-])nn1CC(=O)Nc1ccc(Cl)cn1 | -15.9 | 0.2% | 11.8% | 0.2%
Cc1ccc(S(=O)(=O)NCCNS(=O)(=O)c2ccccc2Br)cc1 | / | 4.8% | 24.7% | /

Copied from the list.
Reading for C[C@]12CC[C@H](O)CC1=CCC1C2CC[C@@]2(C)C1CC[C@@H]2NC(=O)CCC(=O)O (some centres undefined) in Rango-impB inh: -0.1%
Reading for O=C(C1=C[C@@H](c2ccc(Br)cc2)C[C@@H](OCc2ccc(CO)cc2)O1)N1CCN(Cc2ccc3c(c2)OCO3)CC1 in GLA inh pH 4.5: -27.0
